GIRK2 act: activators of human GIRK2 potassium channels. calls only for hits at 25 µM. G protein-activated inward rectifier potassium channel 2 (Homo sapiens), P48051. 63,000 compounds, 0.05% hits. HEK293-GIRK2 thallium flux, Thallos fluorescence;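 active means among the strongest 0.2% of first-round signals and kept after retests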;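 further: first round at about 10 µM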
Target sequence (P48051 whole entry, looked up): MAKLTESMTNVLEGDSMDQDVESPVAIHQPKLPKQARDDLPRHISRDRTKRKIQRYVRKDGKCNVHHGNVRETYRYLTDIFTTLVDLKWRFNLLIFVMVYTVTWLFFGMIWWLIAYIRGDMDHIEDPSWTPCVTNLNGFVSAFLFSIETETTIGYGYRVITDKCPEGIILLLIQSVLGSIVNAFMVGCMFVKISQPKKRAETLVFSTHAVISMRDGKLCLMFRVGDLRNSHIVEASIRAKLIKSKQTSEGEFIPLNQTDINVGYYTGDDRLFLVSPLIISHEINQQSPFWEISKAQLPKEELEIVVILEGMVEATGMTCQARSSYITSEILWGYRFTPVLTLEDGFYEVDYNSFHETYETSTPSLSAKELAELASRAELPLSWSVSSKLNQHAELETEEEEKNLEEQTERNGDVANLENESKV
Calls only. These rows are one share of the data, so the mix of outcomes need not match the whole.

`CS(=O)(=O)CCNCc1ccc(-c2ccc3ncnc(Nc4ccc(OCc5ccccc5)cc4)c3c2)o1` gave GIRK2 act inactive.
`CNC(=O)/C(C#N)=C1\SC(Cc2ccc(Cl)cc2Cl)C(=O)N1c1ccc(Cl)cc1` (centres undefined) gave GIRK2 act inactive.
For COc1ccc(S(=O)(=O)N2CCCc3cc(NS(=O)(=O)Cc4ccccc4)ccc32)cc1 the results were GIRK2 act inactive.
Screening COCC1CCCN(Cc2cn3ccccc3n2)C1 (centres undefined) returned GIRK2 act inactive.
CC(C)C(=O)Nc1c(-c2ccccn2)nsc1C(=O)NC1CCCCCC1 was read as GIRK2 act inactive.
For Cc1nc2cc(NC(=O)CCCS(=O)(=O)Cc3ccccc3)ccc2s1 the results were GIRK2 act inactive.
For O=C(Cn1cnc2ccccc2c1=O)Nc1cc(N2CCOCC2)ncn1 the results were GIRK2 act inactive.
Screening O=C(NCC(=O)N1CCN(c2cc(Nc3ccccn3)ncn2)CC1)c1ccccc1 returned GIRK2 act inactive.
Screening CSc1ccccc1C(=O)NCC(C)(O)c1ccco1 (centres undefined) returned GIRK2 act inactive.
Screening COc1ccc(NC(=O)Cn2nc3c(C)c(C)nc(C)n3c2=O)cc1Cl returned GIRK2 act inactive.
Cc1ccccc1C(=O)N(Cc1ccoc1)Cc1cccs1 was read as GIRK2 act inactive.
For O=C(Cn1nc(-c2ccccc2)c2sc(N3CCOCC3)nc2c1=O)c1ccc2c(c1)CCCC2 the results were GIRK2 act inactive.
For CCOC(=O)CCC(=O)Nc1nnc(-c2ccsc2)o1 the results were GIRK2 act inactive.
For CCn1c(=O)c2c(nc(-n3nc(C)cc3C)n2Cc2ccc(OC)cc2)n(C)c1=O the results were GIRK2 act inactive.
For Cc1noc(-c2cccnc2N2CCC(NC(=O)COc3ccc(F)cc3)C2)n1 (centres undefined) the results were GIRK2 act inactive.
For Cn1cccc1CN(Cc1cccs1)S(=O)(=O)c1cccs1 the results were GIRK2 act inactive.
For Cc1nc(SC(C)c2ccccc2)[nH]c(=O)c1CC(=O)N1CCN(c2ccccc2)CC1 (centres undefined) the results were GIRK2 act inactive.
Screening CCC(=O)Nc1sc2c(c1-c1nc3ccccc3s1)CCN(C)C2 returned GIRK2 act inactive.
`Cc1ccc(NC(=O)Cn2cnc(-c3noc(-c4ccncc4)n3)c2)cc1C` gave GIRK2 act inactive.
Screening COC(=O)N1CCN(CCNC(=O)C(C)(C)C)CC1 returned GIRK2 act inactive.
Cc1ccc(-n2c(-c3ccccc3)cnc2SCC(N)=O)cc1 was read as GIRK2 act inactive.
For Cc1ccc(C)c2sc(N(C)CC(=O)NCCc3ccc(F)cc3)nc12 the results were GIRK2 act inactive.
CC(C)(C)C(=O)Nc1ccc(-c2ccn[nH]2)cc1 was read as GIRK2 act inactive.
`O=c1c(-c2ccccc2)coc2c3c(ccc12)OCN(CC1CCCO1)C3` (centres undefined) gave GIRK2 act inactive.
For COCCNC(=O)Cc1ccc(NC(=O)c2cc3ccccc3oc2=O)cc1 the results were GIRK2 act inactive.
For Cc1[nH]c(=O)[nH]c(=O)c1CCc1nnc(SCC(=O)Nc2ccccc2)o1 the results were GIRK2 act inactive.
O=S(=O)(NCC1CCN(Cc2ccco2)CC1)C1CC1 was read as GIRK2 act inactive.
CC(NC(=O)c1cn(-c2cccc(F)c2)nn1)c1ccc(F)cc1 (centres undefined) was read as GIRK2 act inactive.
For COc1ccc(C(=O)Nc2ccc3nc(C)n(-c4ccc(F)cc4)c(=O)c3c2)c(OC)c1 the results were GIRK2 act inactive.
Cc1nc(-c2ccccc2)sc1C(=O)NCCn1nc(-n2ccnc2)ccc1=O was read as GIRK2 act inactive.
Screening Cc1ccc(C(=O)Cn2nc(-c3cccs3)c3sc(N4CCOCC4)nc3c2=O)cc1 returned GIRK2 act inactive.
`O=C(Nc1ccc(S(=O)(=O)Nc2nccs2)cc1)c1cnn2c1OCCC2` gave GIRK2 act inactive.
For Cc1nsc(C(=O)NCCC2=CCCCC2)n1 the results were GIRK2 act inactive.
Screening O=C(Cc1ccc(Cl)cc1)N1CCC2(CC1)OCCCO2 returned GIRK2 act inactive.
Screening Cn1nnnc1SCC(=O)N1CCN(c2ccc(-c3cccs3)nn2)CC1 returned GIRK2 act inactive.
Screening CCCCCNc1nc2c(c(=O)n(C)c(=O)n2C)n1CC(O)COc1ccccc1 (centres undefined) returned GIRK2 act inactive.
Nc1ccccc1NC(=O)c1ccc(CNC(=O)OCc2cccnc2)cc1 was read as GIRK2 act inactive.
CCC(C(=O)NCC#CCOc1ccccc1C(N)=O)c1ccccc1 (centres undefined) was read as GIRK2 act inactive.
`CN(C(=O)c1nnn(-c2ccc(Br)cc2)c1N)c1ccccc1` gave GIRK2 act inactive.
Screening Cc1ccc(N2CCN(CC(=O)Nc3ccc(C(F)(F)F)cc3)C2=O)cc1 returned GIRK2 act inactive.

Reprinted at random: 7 records from the list, in no set order.
Screening Cc1ccc(N2CCN(CC(=O)Nc3ccc(C(F)(F)F)cc3)C2=O)cc1 returned GIRK2 act inactive.
For COCCNC(=O)Cc1ccc(NC(=O)c2cc3ccccc3oc2=O)cc1 the results were GIRK2 act inactive.
CC(NC(=O)c1cn(-c2cccc(F)c2)nn1)c1ccc(F)cc1 (centres undefined) was read as GIRK2 act inactive.
Screening Cn1nnnc1SCC(=O)N1CCN(c2ccc(-c3cccs3)nn2)CC1 returned GIRK2 act inactive.
For Cc1[nH]c(=O)[nH]c(=O)c1CCc1nnc(SCC(=O)Nc2ccccc2)o1 the results were GIRK2 act inactive.
For COc1ccc(C(=O)Nc2ccc3nc(C)n(-c4ccc(F)cc4)c(=O)c3c2)c(OC)c1 the results were GIRK2 act inactive.
Screening Cc1ccc(C(=O)Cn2nc(-c3cccs3)c3sc(N4CCOCC4)nc3c2=O)cc1 returned GIRK2 act inactive.

Returning to the listing; the 2 compounds before the break are reprinted first.
`CN(C(=O)c1nnn(-c2ccc(Br)cc2)c1N)c1ccccc1` gave GIRK2 act inactive.
Screening Cc1ccc(N2CCN(CC(=O)Nc3ccc(C(F)(F)F)cc3)C2=O)cc1 returned GIRK2 act inactive.
Screening CCOC(=O)c1c(C)oc2cc(/C=N\N)c(OC)cc12 returned GIRK2 act inactive.
Screening COc1ccc(C(=O)Nc2oc3ccccc3c(=O)c2-c2cccc(OC)c2)cc1 returned GIRK2 act inactive.
OCCc1nc2ccccc2n1Cc1cccc(Cl)c1 was read as GIRK2 act inactive.
`C=CCOC(=O)C1=C(C)NC(=O)NC1c1cccc(Br)c1` (centres undefined) gave GIRK2 act inactive.
For Cc1noc(C)c1CCC(=O)N1CCC(COCc2ccc(F)cc2)CC1 the results were GIRK2 act inactive.
Screening CN1C(=O)N(CC(=O)Nc2ccc3c(c2)OCO3)C(=O)C12CCCCC2 returned GIRK2 act inactive.
N#Cc1cccc(C(=O)N2CCC(Oc3cnccn3)CC2)c1 was read as GIRK2 act inactive.
Screening Cc1cc(NC(=O)c2ccc(S(=O)(=O)N3CCCC(C)C3)cc2)n(-c2nc3ccccc3s2)n1 (centres undefined) returned GIRK2 act inactive.
For Cc1nn(-c2ccccc2)c2ncc(C(=O)NCc3ccccc3)c(Cl)c12 the results were GIRK2 act inactive.
`O=c1c2c(CO)c(-c3ccc(F)cc3)nn2ccn1Cc1cc(=O)n2ccccc2n1` gave GIRK2 act inactive.
For CC(=O)Nc1ccc(S(=O)(=O)NCc2cc(-c3ccccn3)n(C)n2)cc1 the results were GIRK2 act inactive.
`COc1ccccc1C1c2c(oc3ccc(C)cc3c2=O)C(=O)N1c1nccs1` (centres undefined) gave GIRK2 act inactive.
`CS(=O)(=O)Nc1cnc(N2CCOCC2)nc1` gave GIRK2 act inactive.
For O=C(NCC(Cc1cccc(F)c1)N1CCNC1=O)c1cnccn1 (centres undefined) the results were GIRK2 act inactive.
COc1ccccc1N1CCN(CCNS(=O)(=O)c2ccccc2F)CC1 was read as GIRK2 act inactive.
`COc1cc(OC)c(NC(=O)Cn2nc3c(SC4CCCCC4)nccn3c2=O)cc1Cl` gave GIRK2 act inactive.
CCOC(=O)C1CCCN(c2c(S(=O)(=O)c3ccccc3)cnc3ccc(C)cc23)C1 (centres undefined) was read as GIRK2 act inactive.
For COc1ccc(CC(C)(O)CNC(=O)c2cc(C)oc2C)cc1 (centres undefined) the results were GIRK2 act inactive.
For Cc1ccc(/C=C2/CCn3c2nc(=O)c2ccccc23)cc1 the results were GIRK2 act inactive.
`O=C(C1CCC(Cn2c(=S)[nH]c3ccccc3c2=O)CC1)N1CC=C(c2ccccc2)CC1` (centres undefined) gave GIRK2 act inactive.

3 compounds out of the list, arranged by length of the SMILES, ascending:
OCCc1nc2ccccc2n1Cc1cccc(Cl)c1 was read as GIRK2 act inactive.
For Cc1noc(-c2cccnc2N2CCC(NC(=O)COc3ccc(F)cc3)C2)n1 (centres undefined) the results were GIRK2 act inactive.
Screening Cc1ccc(C(=O)Cn2nc(-c3cccs3)c3sc(N4CCOCC4)nc3c2=O)cc1 returned GIRK2 act inactive.

Carrying on:
CCn1c(-c2nonc2N)nc2c(C#CC(C)(C)O)nc(O[C@@H](CN)c3ccccc3)cc21 was read as GIRK2 act inactive.
For O=C(NCCCN1CCOCC1)c1cc2c(-c3ccccc3)nn(-c3ccccc3)c2s1 the results were GIRK2 act inactive.
Cc1cc(C)n(-c2ccc(C(=O)Nc3ccccc3C(F)(F)F)nn2)n1 was read as GIRK2 act inactive.
For O=C(CC(c1ccccc1)c1ccccc1)NCCn1ncccc1=O the results were GIRK2 act inactive.
For O=C(CSc1ccc(F)cc1)N1CCC(CSc2ccccn2)CC1 the results were GIRK2 act inactive.
`CCOCCn1c(N2CCC(C(N)=O)CC2)nc2c1c(=O)[nH]c(=O)n2C` gave GIRK2 act inactive.
CCN(CC)S(=O)(=O)c1ccc2nc(N3CCN(Cc4ccc5c(c4)OCO5)CC3)cnc2c1 was read as GIRK2 act inactive.
For NNC(=O)COc1ccc2c(c1)O/C(=C\c1ccc(Cl)cc1)C2=O the results were GIRK2 act inactive.
For CCOC(=O)CCC(=O)N1CCCSCC1CN1CCCC1 (centres undefined) the results were GIRK2 act inactive.
For CC(C(=O)Nc1cc(F)ccc1F)n1nc(-c2ccco2)ccc1=O (centres undefined) the results were GIRK2 act inactive.
Screening Cn1c(SCC(=O)NCCc2ccccc2)nc2c(-c3ccccc3)csc2c1=O returned GIRK2 act inactive.
Screening COc1ccc2ncc(C#N)c(N3CCC(C(=O)NCc4ccc(SC)cc4)CC3)c2c1 returned GIRK2 act inactive.
Screening CN(C)C(CNC(=O)CN1C(=O)CCC1=O)c1cn(C)c2ccccc12 (centres undefined) returned GIRK2 act inactive.
For COc1cccc2cc(C(=O)Nc3cc(Cl)ccc3C)c(=O)oc12 the results were GIRK2 act inactive.
`CCC(C(=O)NCCC(O)c1ccc2c(c1)OCO2)c1ccccc1` (centres undefined) gave GIRK2 act inactive.
For COc1ccc(C(=O)N2CCN(c3ccccc3)CC2)nn1 the results were GIRK2 act inactive.
COc1ccccc1OCC#CCNC(=O)C(C)Oc1ccccc1 (centres undefined) was read as GIRK2 act inactive.
Screening Cn1cc(OCc2ccccc2)c(=O)cc1C(=O)NCc1ccc(S(N)(=O)=O)cc1 returned GIRK2 act inactive.
`Cc1cccc(C(=O)Nc2ccc(Cn3cnc(C(=O)Nc4ccc(F)c(F)c4)c3)cc2)c1` gave GIRK2 act inactive.
COCC(=O)Nc1nc(-c2ccc(C)cc2)cs1 was read as GIRK2 act inactive.

Already shown: an excerpt of the list.
`Cc1cccc(C(=O)Nc2ccc(Cn3cnc(C(=O)Nc4ccc(F)c(F)c4)c3)cc2)c1` gave GIRK2 act inactive.
COCC(=O)Nc1nc(-c2ccc(C)cc2)cs1 was read as GIRK2 act inactive.

Other entries follow.
CCOC(=O)CCC(=O)N1CCC(c2nnc(CC)s2)CC1 was read as GIRK2 act inactive.
CCCCOc1cccc(C(=O)Nc2nonc2-c2ccccc2)c1 was read as GIRK2 act inactive.
`C#CCOCC1CCCN(C(=O)Cc2ccc(SC(C)C)cc2)C1` (centres undefined) gave GIRK2 act inactive.
`COCCN(Cc1ccoc1)S(=O)(=O)c1ccc2c(c1)OCCO2` gave GIRK2 act inactive.
For COc1ccc(Nc2c(-c3nc(C)no3)cnc3nc(C)ccc23)cc1OC the results were GIRK2 act inactive.
For Cc1ccc(S(=O)(=O)NCCC(=O)NC(C)(C)C)c(C)c1N(C)S(C)(=O)=O the results were GIRK2 act inactive.
`CCOC(=O)c1cnn2ccc(NC(=O)C3CCN(S(C)(=O)=O)CC3)cc12` gave GIRK2 act inactive.
CC(=O)c1cccc(NC(=O)c2nnn(-c3ccc(C)cc3)c2C2CC2)c1 was read as GIRK2 act inactive.
For O=c1ccc(-c2ccc(F)cc2)nn1CCc1nc(-c2ccc(Cl)cc2)no1 the results were GIRK2 act inactive.
Cc1cc(=O)[nH]c(-n2nc(-c3cccs3)cc2NC(=O)c2ccccc2Cl)n1 was read as GIRK2 act inactive.
Screening O=c1c(S(=O)(=O)N2CCCCCC2)cccn1CCc1ccccc1 returned GIRK2 act inactive.
For O=C(Cn1cnc2c(-c3ccc(F)cc3)nsc2c1=O)NC1CCCCC1 the results were GIRK2 act inactive.
COc1ccc(C(=O)N2CCC(c3nnc(C(C)C)o3)CC2)cc1 was read as GIRK2 act inactive.
`Cc1ccc(NC(=O)CN2C(=O)NC3(CCCCC3C)C2=O)cc1Cl` (centres undefined) gave GIRK2 act inactive.
Screening C=C1C[C@H](O)[C@H](C/C=C\CCCC(=O)O)[C@H]1/C=C/[C@@H](O)CCCCC returned GIRK2 act inactive.
NS(=O)(=O)c1ccc(NC(=O)C2COc3ccccc3C2)cc1 (centres undefined) was read as GIRK2 act inactive.
For Cc1cccc(N2CCN(c3cc(C)nc4c(-c5ccccc5Cl)cnn34)CC2)n1 the results were GIRK2 act inactive.
`COc1cccc(CNC(=O)c2csc(Nc3ccc(S(C)(=O)=O)cc3)n2)c1` gave GIRK2 act inactive.
`COC(=O)C1=C(C)NC(=O)NC1c1ccccc1` (centres undefined) gave GIRK2 act inactive.
